Compound activity: PubChem, National Center for Advancing Translational Sciences (NCATS)
Rango complex inh = qHTS Assay for Inhibitors of Rango (Ran-regulated importin-beta cargo) - Importin beta complex formation. AID 540263, 2011. Rango CFP/YFP FRET sensor + importin beta, 45 min. 0.031% of 340,000 active. Importin subunit beta-1 (Homo sapiens), Q14974. Potency, µM (top dose mostly 92.2 µM), for the others: at the top dose inhibition of complex formation; active = rising FRET ratio curve, often small or poorly fitted; inconclusive = mostly compound fluorescence or quenching in the first reads; inactive = flat curves in all reads;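 further: potency means the concentration at half of the fitted maximal effect; 0% = DMSO wells and 100% = buffer wells lacking importin beta; nearly all actives have a fitted effect of over 15% in size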
Target sequence (Q14974 whole entry, looked up): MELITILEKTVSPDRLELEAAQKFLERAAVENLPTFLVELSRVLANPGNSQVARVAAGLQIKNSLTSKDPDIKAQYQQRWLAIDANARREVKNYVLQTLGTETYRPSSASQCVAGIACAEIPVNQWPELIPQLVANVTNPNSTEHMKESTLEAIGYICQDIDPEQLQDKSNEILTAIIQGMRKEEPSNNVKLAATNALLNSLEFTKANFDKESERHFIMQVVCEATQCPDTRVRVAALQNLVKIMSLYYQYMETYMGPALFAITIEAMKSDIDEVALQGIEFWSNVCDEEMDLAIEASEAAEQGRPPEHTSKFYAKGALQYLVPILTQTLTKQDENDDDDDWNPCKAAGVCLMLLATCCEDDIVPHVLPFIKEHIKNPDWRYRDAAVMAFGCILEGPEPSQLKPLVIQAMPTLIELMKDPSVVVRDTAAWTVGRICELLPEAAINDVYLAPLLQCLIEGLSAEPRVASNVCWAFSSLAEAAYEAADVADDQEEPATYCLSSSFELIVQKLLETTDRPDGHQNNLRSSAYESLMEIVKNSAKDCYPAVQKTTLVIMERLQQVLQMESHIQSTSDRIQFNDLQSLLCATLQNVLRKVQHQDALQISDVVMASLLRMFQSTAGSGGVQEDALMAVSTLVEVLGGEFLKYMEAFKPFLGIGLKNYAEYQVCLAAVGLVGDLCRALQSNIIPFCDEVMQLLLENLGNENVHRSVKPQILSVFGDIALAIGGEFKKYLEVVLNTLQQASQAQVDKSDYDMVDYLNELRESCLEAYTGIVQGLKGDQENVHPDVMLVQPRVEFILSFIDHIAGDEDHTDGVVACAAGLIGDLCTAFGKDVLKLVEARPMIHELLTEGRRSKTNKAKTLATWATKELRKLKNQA
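FRET biosensor Rango (snurportin 1 IBB between N-terminal EYFP and C-terminal Cerulean), 50 nM in PBS/1 mM DTT/0.02% Tween-20/0.1% BSA, preincubated 5 min RT with compound; 0.125 microM importin beta added, 45 min RT, CFP/YFP FRET ratio read.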
GLA inh pH 4.5 = qHTS Assay for Inhibitors of Human alpha-Galactosidase at pH 4.5; Alpha-galactosidase A (Homo sapiens), P06280; activity change, negative = inhibition, % at 105 µM; purified enzyme, 4-MU-alpha-Gal fluorescence, pH 4.5; 230,000 tested, under 10 active; inconclusive = small, poorly fitted or top-dose-only inhibition, or a rising curve; inactive = flat fitted curve, though single readings scatter; no compound was filed as active;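 further: 0% = full activity with enzyme and -100% = basal without enzyme; dose as in the result columns while the protocol names 77 µM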
miR-21 reporter = qHTS Assay for Modulators of miRNAs and/orActivators of miR-21; HeLa miR-21 FLuc reporter, luciferase, 48 h; Potency, µM (top dose mostly 38.3 µM), inactives show at the highest dose reporter change, positive = more light; 340,000 tested, under 10 active; active = well fitted rising curve with a large enough effect; inconclusive = small, poorly fitted or top-dose-only effect; inactive = no such curve, though single readings can be large or run the other way;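 further: % of control where 0% means no effect; miR-21 action dims this reporter so a rising signal means less miR-21 action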
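Luminescence from a firefly luciferase reporter carrying a miR-21 binding site downstream, stably expressed under a CMV promoter in HeLa cells that make miR-21 endogenously, reports miRNA modulation after 48 h compound exposure up to approximately 40uM final.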
Rango release inh = qHTS Assay for Inhibitors of RanGTP induced Rango (Ran-regulated importin-beta cargo) - Importin beta complex dissociation; Snurportin-1 (Homo sapiens) + GTP-binding nuclear protein Ran (Homo sapiens) + Importin …; Biochemical FRET Rango-importin beta, RanGTP-induced dissociation; Potency, µM (top dose mostly 46.1 µM), for inactives: top-dose activity change, negative = inhibition; 0.071% of 340,000 active; AID 540253, 2011; active means falling FRET ratio curve, often poorly fitted, with flat reads before Ran was added; inconclusive means other falling curves, or compound fluorescence or quenching; inactive means flat or rising ratio curve;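 further: potency means the concentration at half of the fitted maximal effect; % of control where 0% means no effect; nearly all actives have a fitted effect of over 45% in size; -100% = wells without RanGTP and RCC1; the record marks most hits as doubtful in a second field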
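Recombinant Rango FRET biosensor (EYFP–snurportin 1 IBB–cerulean CFP10) at 0.1 uM premixed with 0.25 uM importin beta in PBS, 1 mM DTT, 0.02% Tween-20, 0.1% BSA. Compound added 5 min; RanGTP-RCC1 (0.6 uM Ran, 2 mM GTP, 0.2 uM RCC1) then triggers release, read at 45 min.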
The depositor's hits bear a star; ? = inconclusive; . = not tested or not shown; [ ] = remark or other dose. An excerpt; count on the stated rates, not on these rows.

Values run as follows: Rango complex inh, GLA inh pH 4.5, miR-21 reporter, Rango release inh
COc1ccc(COCC(CC(C)C)N2CCN(C(=O)c3cccc(C(F)(F)F)c3)CCC2=O)cc1 (stereo unspecified)
 : 1.2%, 2, 1%, -7%
O=C(Nc1ccc(F)cc1)Nc1ccc2ccccc2n1
 : 0.1%, ., -19%, 7%
CCN(CC)S(=O)(=O)c1cccc(C(=O)OC2CCOC2=O)c1 (stereo unspecified)
 : 2.8%, ., 1%, 36%
O=C(COc1ccccc1)Nc1cccc(-c2ccc(N3CCOCC3)nn2)c1
 : 1.2%, ., ., ?
Cn1c(C(=O)N2CCN(Cc3ccc4c(c3)OCO4)CC2)cc2sccc21
 : -0.2%, 1, 4%, -11%
CCc1ccc(S(=O)(=O)/N=C2\C=C(Nc3ccc(O)cc3)C(=O)c3ccccc32)cc1
 : -0.9%, ., ?, 14%
COc1ccc2nc(-c3ccccc3)cc(C(=O)OCC(=O)NC3CC3)c2c1
 : -0.5%, ., ., -10%
COc1ccc(NC(=O)CC2S/C(=N\c3nccs3)N(C)C2=O)cc1 (stereo unspecified)
 : 1.4%, 8, -1%, 1%
CCCC(=O)NC(c1ccc(OC)c(OC)c1)c1c(O)ccc2ccccc12 (stereo unspecified)
 : -2.4%, 4, -13%, 5%
O=C(Cc1cccc2ccccc12)NNC(=O)c1ccc(Br)o1
 : -1.4%, ., -2%, 10%
Cc1ccc(C(=O)O/N=C2\CCS(=O)(=O)c3sccc32)cc1
 : 1.0%, 15, 1%, -11%
COc1cccc(CN2CCN(C(=O)Nc3ccc([N+](=O)[O-])cc3)CC2)c1
 : -4.4%, -8, 14%, -16%
CCc1ccc(C(C(=O)NC2CCCC2)N(CCOC)C(=O)CCC(=O)Nc2cc(C)on2)cc1 (stereo unspecified)
 : 1.5%, ., 0%, 7%
O=C(c1ccccc1)N1CCN(c2ncnc3sc4c(c23)CCC4)CC1
 : -2.6%, -2, 16%, -6%
CC1(N2CCOCC2)CC2(O)C(=[N+]1[O-])CCc1c2no[n+]1[O-] (stereo unspecified)
 : 0.0%, 5, -16%, 5%
COc1ccc(NS(=O)(=O)c2cc(Cl)ccc2Cl)cc1S(=O)(=O)N1CCCCC1
 : -3.8%, 4, 5%, -8%
COC(=O)c1sccc1N/C=C(\C#N)S(=O)(=O)C(C)(C)C
 : -0.5%, -2, 0%, 11%
CCCCn1c(N)c(N(CCOC)C(=O)CN(C)CC(=O)Nc2ccc(Cl)c(Cl)c2)c(=O)[nH]c1=O
 : -0.2%, ., ., 1%
CCOCC(=O)Nc1cc(C(F)(F)F)ccc1Oc1cccc(Br)c1
 : 0.9%, -2, -6%, -10%
COc1ccc2nc(NS(=O)(=O)c3ccc(NC(C)=O)cc3)sc2c1
 : 2.9%, -10, -3%, 2%
Cc1ccc(C)c(OCCC(=O)NNC(=O)c2cc(C)oc2C)c1
 : -1.1%, ., ., 1%
O=C(c1ccc(-c2cccc(C(F)(F)F)c2)o1)N1CCN(c2ccccc2O)CC1
 : 0.6%, ., -13%, -7%
CNC(=O)/C(C#N)=C/c1ccc(-c2ccccc2[N+](=O)[O-])o1
 : 4.3%, 5, -28%, -11%
Cc1ccc(NC(=O)Nc2nnc(Cc3ccc([N+](=O)[O-])cc3)s2)cc1
 : 1.1%, 5, -54%, -11%
COC(=O)c1cc(-c2ccc(Br)cc2)n[nH]1
 : 3.4%, 2, -39%, 12%
Cc1ccc2c(c1)C(O)(CC(=O)c1ccc3c(c1)OCO3)C(=O)N2 (stereo unspecified)
 : ?, 2, -7%, 2%
CSCCC(NC(=O)c1ccc(Cl)c([N+](=O)[O-])c1)C(=O)N1CCN(C/C=C/c2ccccc2)CC1 (stereo unspecified)
 : 3.3%, ., ., -16%
Cc1ccc(C(=O)NC(=S)NNS(=O)(=O)c2ccc(C)cc2)cc1
 : 0.4%, -8, -20%, 0%
CCOC(=O)C1=C(COC(=O)CCOc2ccc(OCC)cc2)NC(=O)NC1C (stereo unspecified)
 : 0.1%, ., ., -1%
NC(=O)C1CCN(C(=O)CNC(=O)c2ccccc2)CC1
 : 3.7%, 7, -2%, -12%
COCCn1c(SC(C)C(=O)NCC2CCCO2)nc2sc3c(c2c1=O)CCC3 (stereo unspecified)
 : -1.0%, ., ., 14%
COc1ccc(CN2CCN(CCc3ccccc3)C(CCO)C2)c(Cl)c1OC (stereo unspecified)
 : -2.3%, ., 2%, -6%
CC1(C)CC(=O)C2=C(C1)Nc1ccccc1N1C(=O)c3ccccc3C21 (stereo unspecified)
 : 5.4%, 1, -9%, -1%
O=C(O)c1cccc(NC(=S)NCc2ccccc2)c1
 : 0.8%, 4, 0%, 1%
CCCNC(=O)CN(c1cccc(F)c1)S(C)(=O)=O
 : 0.0%, 10, -7%, -8%
CC(=O)NS(=O)(=O)c1ccc(NC(=S)NC(=O)Cc2ccccc2)cc1
 : ?, 4, -1%, 3%
COc1ccccc1C(=O)N1CC(=O)Nc2ccc(F)cc2C1c1ccccc1 (stereo unspecified)
 : 0.1%, ., 5%, 3%
O=C(c1ccc(CS(=O)(=O)c2ccc(Br)cc2)o1)N1CCCC1
 : -1.0%, -6, -14%, -17%
CCCOc1ccc(N2C(=O)C3C4C=CC(CC4)C3C2=O)cc1 (stereo unspecified)
 : -3.3%, ., -5%, -12%
COC(=O)C(CCSC)NC(=O)CNS(=O)(=O)c1ccc(F)cc1 (stereo unspecified)
 : -0.1%, 7, -3%, 0%
Cn1c(-c2ccco2)nc2cc3ccccc3cc21
 : 2.6%, 22, 7%, -14%
CCOC(=O)C1=NNC(C(=O)c2ccc(C)cc2)C1c1ccc(C)cc1 (stereo unspecified)
 : -0.2%, -27, -4%, -8%
Cc1ccc(NC(=O)Cn2nc(C)cc2C)cc1
 : 1.2%, 7, -1%, 23%
Cc1cccc(C)c1NC(=O)CN1C(=O)N(C)Cc2ccccc21
 : 0.1%, 6, -7%, 5%
CC1Cc2ccccc2N1C(=O)CNc1cccc(S(=O)(=O)N2CCCC2)c1 (stereo unspecified)
 : 2.9%, 4, -5%, -15%
Cc1cccc(NC(=S)NC(=O)/C=C/c2ccccc2)n1
 : -0.6%, 5, -28%, -2%
Cc1cc(CNC(=O)COc2ccc(F)cc2)c2ccccc2n1
 : 3.4%, 12, 0%, 33%
CC(C)(C)n1nnnc1C(c1ccc(F)cc1)N1CCC(C(N)=O)CC1 (stereo unspecified)
 : 0.6%, 5, 0%, 8%
CC(C)(C)c1cc(C(=O)N2CCN(c3ncccn3)CC2)ccn1
 : -0.3%, 10, 1%, 12%
COC(=O)C(=C/C=C/c1cccnc1)C(=O)OC
 : 9.8%, 1, 12%, -3%
O=C(Cc1nc(-c2cnccn2)no1)NNC(=O)Nc1ccccc1
 : 1.1%, -1, 4%, -7%
O=C(Cc1ccccc1)Nc1ccc2c(c1)CCC2
 : 4.6%, 4, -54%, -6%
CCC(C)[C@H](NC(=O)N1CC(=O)Nc2ccccc21)C(=O)N[C@@H](C(=O)O)c1ccccc1 (stereo partly specified)
 : -1.2%, ., -1%, -10%
O=C(Cn1cc(C(F)(F)F)ccc1=O)N/N=C/c1ccc(O)cc1
 : -3.8%, -2, 4%, 25%
CC1(C)CSC(=NCCc2ccccc2)N1
 : -3.1%, ., -16%, -2%
COc1cccc(C(O)c2nccn2Cc2ccccc2)c1OC (stereo unspecified)
 : -0.5%, ., -1%, -11%
Clc1ccc(C(c2nnnn2C2CCCC2)N2CCN(c3nc4ccccc4s3)CC2)cc1 (stereo unspecified)
 : 1.3%, ., ., 26%
O=C(CCNS(=O)(=O)c1cccc2nsnc12)NC1CCCc2ccccc21 (stereo unspecified)
 : 1.4%, -12, -2%, 1%
NS(=O)(=O)c1cccc(NC(=O)CSc2ncnc3ccccc23)c1
 : -1.0%, -2, -10%, 3%
COc1ccc(N2C(=O)CSC2c2ccc3c(c2)OCO3)cc1 (stereo unspecified)
 : 5.3%, 1, -4%, 5%

New compounds follow.
Structure,Rango complex inh,GLA inh pH 4.5,miR-21 reporter,Rango release inh
O=C(CSc1ccc(Br)cc1)NCC1(N2CCCCC2)CCCCC1,-1.9%,.,.,-1%
Cc1nn(CCC(N)=O)c2nc(-c3cccs3)cc(C(F)(F)F)c12,0.3%,-1,2%,2%
Cn1cc(/C=C/C(=O)N2CCCC(C(=O)c3cccc4ccccc34)C2)cn1 (stereo unspecified),?,8,-4%,-3%
Cc1ccc(O)c(C(=O)CC(=O)c2ccc(Cl)cc2)c1,4.2%,.,-3%,-7%
CCOc1ccccc1NC(=S)N1CCN(c2nc(-c3cccc(OC)c3)cs2)CC1,?,-6,-17%,-7%
COc1ccc(C(=O)Nc2ccccc2N2CCOCC2)cc1S(=O)(=O)N1CCCC1,2.7%,.,.,21%
O=C(Nc1cccc(NC(=O)c2sc3ccccc3c2Cl)c1)c1ccco1,-6.6%,-10,-31%,-1%
CCOC(=O)C1CCN(Cc2nnnn2CCc2ccccc2)CC1,-2.7%,9,-28%,-8%

7 entries already listed, sorted by molar mass, smallest number first.
Structure,Rango complex inh,GLA inh pH 4.5,miR-21 reporter,Rango release inh
Cc1ccc(O)c(C(=O)CC(=O)c2ccc(Cl)cc2)c1,4.2%,.,-3%,-7%
COc1ccc(N2C(=O)CSC2c2ccc3c(c2)OCO3)cc1 (stereo unspecified),5.3%,1,-4%,5%
CCOC(=O)C1CCN(Cc2nnnn2CCc2ccccc2)CC1,-2.7%,9,-28%,-8%
NS(=O)(=O)c1cccc(NC(=O)CSc2ncnc3ccccc23)c1,-1.0%,-2,-10%,3%
O=C(Nc1cccc(NC(=O)c2sc3ccccc3c2Cl)c1)c1ccco1,-6.6%,-10,-31%,-1%
COc1ccc(C(=O)Nc2ccccc2N2CCOCC2)cc1S(=O)(=O)N1CCCC1,2.7%,.,.,21%
CCOc1ccccc1NC(=S)N1CCN(c2nc(-c3cccc(OC)c3)cs2)CC1,?,-6,-17%,-7%

New compounds follow:
Structure,Rango complex inh,GLA inh pH 4.5,miR-21 reporter,Rango release inh
CCC1C(=O)NCCN1C(=O)c1cc(COc2cc(C)ccc2C)on1 (stereo unspecified),-2.0%,.,-8%,-13%
CC[n+]1c(/C=C/c2ccc(N(C)C)cc2)ccc2ccccc21,3.9%,-14,27%,-1%
O=C(CN1CCN(c2ccccc2F)CC1)Nc1ccc2c(c1)CCC2,2.9%,-8,-7%,23%
CN(C)c1ccc(C(CNS(=O)(=O)c2cccc([N+](=O)[O-])c2)N2CCOCC2)cc1 (stereo unspecified),-0.7%,.,.,32%
CCN(CC)S(=O)(=O)c1ccc2c(c1)N(CC(=O)N(CCc1ccncc1)C(C)C)C(=O)CO2,-0.1%,5[21.1 µM],0%,-5%
O=C(NNC(=O)c1cc(Br)c(Br)s1)c1csc(N2CCOCC2)n1,0.0%,.,.,8%
COc1ccccc1NC(=O)c1ccc(NC(=O)CN2CCCC2)cc1,9.3%,6,-10%,12%
O=C(/C=C/Nc1ccc(F)cc1F)c1ccc(Br)cc1,-5.4%,.,.,-17%
